HPGD block = qHTS Assay for Inhibitors of HPGD (15-Hydroxyprostaglandin Dehydrogenase) | 15-hydroxyprostaglandin dehydrogenase [NAD(+)] (Homo sapiens), P15428 | purified HPGD, NADH fluorescence kinetic, PGE2 substrate | Potency, µM, without a hit: top-dose activity change, negative = inhibition, usual class: inhibitors | 4.3% of 150,000 active | AID 894, 2007; active = well fitted inhibition curve with a large enough effect (not every such curve was filed as active); inconclusive = small, poorly fitted or top-dose-only effect, or another doubt; inactive = no such curve, though single readings can be large or run the other way;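 further: top concentration of the series not given in the record; plate controls included wells without enzyme; inactives centre near -10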
Target sequence (P15428 whole entry, looked up): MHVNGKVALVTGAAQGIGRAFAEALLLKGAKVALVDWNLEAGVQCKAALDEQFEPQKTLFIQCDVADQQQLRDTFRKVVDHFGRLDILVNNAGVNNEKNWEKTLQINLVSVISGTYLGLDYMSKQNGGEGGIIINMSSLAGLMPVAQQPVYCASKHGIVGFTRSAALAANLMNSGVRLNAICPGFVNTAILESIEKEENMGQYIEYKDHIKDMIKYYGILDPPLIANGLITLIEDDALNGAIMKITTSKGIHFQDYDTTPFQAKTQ
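20 nM HPGD preincubated 15 min at room temperature with compound in 50 mM Tris-HCl pH 8, 0.01% Tween 20. Started with 1 mM NAD+ and 30 uM prostaglandin E2; NADH fluorescence (360/450 nm) read 5 times over 30-s intervals, last minus first.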
* = called active by the depositor; ? = inconclusive; & = joins results of further samples. On the % scale 0 is the no-effect control and ±100 the full control effect; potency means the concentration at half of the fitted maximal effect. This is a subset, so the mix of outcomes need not match the whole.

compound	HPGD block
COc1ccc(C2CC(c3cccc(C)c3)n3nc(N)nc3N2)cc1 (stereo unspecified)	-20.2%
CN(C)CCN1C(=O)C(O)=C(C(=O)c2ccco2)C1c1ccccc1F (stereo unspecified)	-6.7%
CC(C(=O)NCc1ccccc1)N1C(=O)C2CC=C(Cl)CC2C1=O (stereo unspecified)	-13.2%
N/C(CC/C(N)=N/O)=N\O	-9.3%
CC1CN(c2oc(-c3ccco3)nc2S(=O)(=O)c2ccccc2)CC(C)O1 (stereo unspecified)	-12.6%
COc1ccc(NC(=O)CS(=O)CC(=O)NCc2cccc(C(F)(F)F)c2)cc1 (stereo unspecified)	-1.9%
COCCN1Cc2cccc(C(=O)NC3CCCCCC3)c2C1=O	-11.6%
Cc1sc(NC(=O)c2ccco2)c(C(Nc2ccccn2)c2ccccc2)c1C (stereo unspecified)	-9.3%
Cn1cnnc1Sc1ccc(C(=O)OCC(=O)Nc2cc(Cl)cc(Cl)c2)cc1[N+](=O)[O-]	-9.8%
COc1cc(-c2nnc(SCC(=O)c3ccccc3)o2)cc(OC)c1OC	-26.4%
CC(c1ccccc1C(O)c1ccccc1)N(C)C (stereo unspecified)	2.5%
Cc1onc(-c2ccccc2Cl)c1C(=O)N1CCc2ccccc21	-4.6%

(more compounds)
compound	HPGD block
Cn1nnnc1SCCNCC#Cc1ccccc1	-7.0%
COc1ccccc1CNC(=O)c1ccc(OC(F)F)c(OC)c1	0.0%
COc1ccc(N2C(=O)NC3CC2(C)Oc2ccc(Cl)cc23)cc1OC (stereo unspecified)	-1.0%
CCOc1ccc(NC(=O)CCC(=O)OC)cc1	-0.6%
Cc1cc(NS(=O)(=O)c2ccc(NC(=O)CCc3ccccc3)cc2)no1	-16.7%
COC(=O)[C@@]1(Cc2ccc(OC)cc2)[C@H]2c3cc(C(=O)N(C)C)n(CCF)c3C[C@H]2CN1C(=O)c1ccccc1	-2.2%
CCn1c(Cc2ccccc2)nnc1SCC(=O)Nc1cc(C)on1	-10.0%
O=C(NCc1ccccc1)C1CCCN(S(=O)(=O)c2cccc3nonc23)C1 (stereo unspecified)	-6.5%
Cc1ccc(-c2cc(C(=O)Nc3ccc(S(=O)(=O)Nc4cc(C)on4)cc3)c3ccccc3n2)c(C)c1	-25.6%
COc1cc(O)oc1C=Nc1ccc(Oc2ccccc2)cc1	-26.8%
Cc1nc2ccccc2c(=O)n1CCN1CCOCC1	-10.3%
BrC(/C=N/Nc1nc(N2CCOCC2)nc(N2CCOCC2)n1)=C/c1ccccc1	15.8µM*

Following part.
compound	HPGD block
CC(=O)NS(=O)(=O)c1ccc(NC(=O)C(Sc2ccccc2)c2ccccc2)cc1 (stereo unspecified)	1.0%
CCOc1ccccc1C(=O)NC(C(=O)OCC(=O)Nc1nnc(-c2ccccc2)o1)C(C)C (stereo unspecified)	-24.1%
Cc1ccc(/C=C2/CCc3c([nH]c4ccccc34)C2=O)cc1	-3.6%
CC(=O)Oc1c(C)cc(OCC(O)CNC(C)C)c(C)c1C (stereo unspecified)	-3.3%
O=C1OC(O)C(C(Cl)Cl)=C1Cl (stereo unspecified)	-8.4%
Cc1c(CCOC(=O)c2ccccc2)sc[n+]1Cc1ccccc1	-3.5%
COc1ccc(-c2onc(C)c2-c2ccc(C(=O)OC(C)C)o2)c(O)c1	-25.9%
CCOC(=O)c1[nH]c2c(c1C)C(=O)CC(c1ccc(OCC)c(OC)c1)C2 (stereo unspecified)	-3.0%
C=C(C)CSc1nc2c(cc1C#N)CCC2	-15.7%
COC(=O)c1ccc(CSc2nnc(NC(=O)C3CC(=O)N(c4ccc5c(c4)OCCO5)C3)s2)cc1 (stereo unspecified)	-16.6%
O=C1OC(Nc2ccc3ncccc3c2)c2ccccc21 (stereo unspecified)	?
CC(C)(C)c1ccc(-c2csc(NC(=O)CN3C(=O)NC4(CCCCC4)C3=O)n2)cc1	-27.7%

Further results follow:
compound	HPGD block
N[C@@H](CSS(=O)(=O)O)C(=O)O	28.2µM*
NCCCCCNC(=O)/C=N\O	-4.2%
C(=N\N1CCN(C2c3ccccc3-c3ccccc32)CC1)/c1ccccn1	5.5%
COc1cc(OC)cc(-n2nnnc2SCC(=O)NC2CCCC2)c1	-10.7%
COc1ccc(OC)c(Nc2nc(-c3sc(N)nc3C)cs2)c1	-26.8%
Cc1cccc[n+]1CC(=O)c1ccc2c(c1)OCCO2	-9.4%
O=C(NCC1CCCO1)c1nn2cccnc2c1Cl (stereo unspecified)	25.1µM*
CC(=O)Oc1ccc(C(=O)Nc2nccs2)cc1	-13.6%
O=C(/C=C/c1ccc(O)c(O)c1)O[C@@H]1C[C@@](O)(C(=O)O)C[C@H](O)[C@@H]1O	-14.0%
Cc1ccc(/C=N/NC(=O)c2ccc(C(=O)N/N=C/c3ccc(C)s3)o2)s1	?
CS(=O)(=O)N(CC(=O)N1CCCCC1)Cc1ccc(Cl)cc1	-10.4%
Cc1ccsc1C(=O)OCc1csc(-c2ccccc2)n1	-10.5%

Of the compounds above, these contain a COOH group.
compound	HPGD block
N[C@@H](CSS(=O)(=O)O)C(=O)O	28.2µM*
O=C(/C=C/c1ccc(O)c(O)c1)O[C@@H]1C[C@@](O)(C(=O)O)C[C@H](O)[C@@H]1O	-14.0%

Following part
compound	HPGD block
CC(C)c1nc(SCC(=O)Nc2cccc(S(N)(=O)=O)c2)n[nH]1	-11.3%
c1ccc2nc3c(nc2c1)CCc1nonc1-3	-8.4%
CCCOc1ccc(Cc2nn[nH]n2)cc1	-2.5%
Cc1nnsc1C(=O)Nc1cc(Cl)ccc1Cl	-5.3%
CCN(CC)CCn1c(/N=C/c2cc(Br)ccc2O)nc2ccccc21	-10.5%
CCOc1ccccc1OCC(=O)Nc1ccc(N2CCCCC2)cc1	-18.9%
CCOC(=O)c1c(C)[nH]c(C(=O)COC(=O)/C=C/c2ccc(O)c(OC)c2)c1C	-26.4%
Cc1ccc(-n2ncc3c(=O)n(Cc4ccccn4)cnc32)cc1C	-29.8%
O=C(Nc1ccc(F)c(F)c1)NC1CCCCC1	-9.6%
Cc1ccnc(SCC(=O)Nc2sc3c(c2C#N)CCC(C(C)(C)C)C3)n1 (stereo unspecified)	-22.6%
CCC1C(=O)N(c2nc(C)cc(C)n2)N=C1C (stereo unspecified)	2.3%
COc1ccc(C2CC(c3ccc(Br)cc3)=NN2C(=O)CSC2=NCCS2)cc1 (stereo unspecified)	?

Next section.
compound	HPGD block
Cc1cc(/C=N/n2cnnc2)c(O)c([N+](=O)[O-])c1	-22.1%
CC(C)Oc1ccc(CC2CC(=O)NC2=O)cc1 (stereo unspecified)	-8.9%
CCCCCSc1nc2c(c(=O)[nH]c(=O)n2C)n1C	0.2%
CC(C)NC(=O)COc1ncnc2sccc12	-4.3%
O=S(=O)(Nc1ncnc2sc3c(c12)CCC3)c1ccc2ccccc2c1	-16.5%
COc1ccc(-c2cc(C(=O)N3CCCCC3)no2)cc1OC	14.1µM*
C=CCOC(=O)NC(c1ccc(F)c(F)c1)C(C(C)=O)C(=O)OC (stereo unspecified)	-6.1%
Cc1cccc(C(=O)Nc2nnc(-c3ccco3)o2)c1	-9.4%
O=C(c1ccco1)N1CCN(C(=O)C2CC(c3ccc(F)cc3)=NO2)CC1 (stereo unspecified)	-7.9%
Nc1n[nH]c(-c2ccc(F)cc2)n1	-16.8%
CCC(CCC(=O)Nc1ccc(S(N)(=O)=O)cc1)C(=O)O (stereo unspecified)	-8.6%
O=C(Nc1nsc(-c2ccccc2)n1)c1cccs1	?

The final four records of the section before are carried over, then new ones follow.
compound	HPGD block
O=C(c1ccco1)N1CCN(C(=O)C2CC(c3ccc(F)cc3)=NO2)CC1 (stereo unspecified)	-7.9%
Nc1n[nH]c(-c2ccc(F)cc2)n1	-16.8%
CCC(CCC(=O)Nc1ccc(S(N)(=O)=O)cc1)C(=O)O (stereo unspecified)	-8.6%
O=C(Nc1nsc(-c2ccccc2)n1)c1cccs1	?
CCOc1ccc(S(=O)(=O)N2CCN(C(=O)c3sccc3C)CC2)cc1	-12.1%
CCCCN1C(=O)C(CC(=O)NCC)SC1=Nc1ccccc1 (stereo unspecified)	-0.8%
COC(=O)c1ccc(C(=O)OC)c(NC(=S)N2CCN(c3ccccc3)CC2)c1	-4.9%
CC1=NN(c2ccc(C)cc2C)C(=O)C1C(c1ccccc1)C1C(=O)N(c2ccc(C)cc2C)N=C1C (stereo unspecified)	?
CN(C)C(=O)Cn1c(SCC(=O)NCc2ccc3c(c2)OCO3)nc2ccccc21	-11.9%
O=C(CN1CCN(c2ccccn2)CC1)NC1CCCC1	-23.1%
CCc1ccccc1OCc1nc2ccc(S(=O)(=O)N3CCOCC3)cc2[nH]1	-21.5%
O=C1CC(N(C(=O)c2ccco2)c2cccc(Cl)c2)C(=O)N1c1cccc(Cl)c1 (stereo unspecified)	-3.8%
CCCNNC(=O)C(O)(c1cccc(C)c1)c1cccc(C)c1	1.5%
CC(=O)Oc1ccc(NC(=O)Cc2ccccc2)cc1	-5.2%
Cc1ccccc1-c1nc(CS(=O)(=O)CC(=O)NCc2ccc3c(c2)OCO3)c(C)o1	-16.8%
CCc1ccc(OCC(=O)N/N=C/c2cc([N+](=O)[O-])ccc2N2CCCCCC2)cc1	-14.1%

Additional entries
compound	HPGD block
CCN1C(=O)CC(n2c(C)nc3ccccc32)C1=O (stereo unspecified)	-14.9%
CCc1cc2c(=O)n(CC(C)C)cnc2s1	-18.3%
COc1ccc(C(C[N+](=O)[O-])c2c(-c3ccccc3)cc3ccccn23)cc1 (stereo unspecified)	28.2µM*
O=C(CSc1nnc2scc(-c3ccccc3)n12)Nc1nsc(-c2ccccc2)n1	?
CCN(CC(O)CON=C1c2ccccc2-c2ccccc21)S(=O)(=O)c1ccc(Cl)cc1 (stereo unspecified)	-13.3%
COc1ccccc1N1CCN(CC(O)COc2cccc3ccccc23)CC1 (stereo unspecified)	-16.1%&-8.2%
CCc1nc(SCC(=O)c2cc(C)ccc2C)n[nH]1	39.8µM*
CCC(=O)N1CCc2cc(S(=O)(=O)N3CCc4ccccc4C3)ccc21	?
CN(c1ccc(F)cc1)S(=O)(=O)c1ccc2[nH]cc(C(=O)O)c(=O)c2c1	?
Cc1[nH]c(=O)[nH]c(=O)c1CSc1nnc([C@H](CC(C)C)NC(=O)OC(C)(C)C)o1	-10.2%
N#Cc1nc(COc2ccccc2F)oc1NCCCn1ccnc1	-8.1%
Cc1ccc(NC(=S)Nc2c(C)n(C)n(-c3ccccc3)c2=O)cc1	-2.8%

Next section:
compound	HPGD block
N#Cc1nc(-c2ccco2)oc1N1CCN(Cc2ccccc2)CC1	?
Cc1ccc(NC(=O)c2ccccc2N(C)S(=O)(=O)c2ccccc2)c(C)c1	0.2%
O=C1CCCCC(=O)N(c2ccccc2)c2ccccc21	-10.2%
O=C(NCc1ccco1)C1CC2CCC1C2 (stereo unspecified)	15.8µM*
Nc1c(C2=NCCO2)nnn1Cc1ccccc1	-9.6%
N#Cc1cnn2c1nc(N1CCOCC1)c1ccccc12	-4.8%
O=C(Oc1ccccc1/C=C\C(=O)c1cc2ccccc2o1)c1cccc(F)c1	?
O=C(C[n+]1cc(-c2ccccc2)n2c1CCCCC2)c1ccc(Cl)cc1	-0.5%
CC(C)CNC(=O)c1ccccc1-c1ccccc1C(=O)O	-8.9%
O=C1CC(c2ccccc2Cl)CC(O)=C1C=Nc1ccccc1 (stereo unspecified)	-17.1%
FC(F)(F)c1cccc(N/N=C/c2ccccc2)c1	-10.7%
CCOc1cc(/C=N/NC(N)=S)cc(Br)c1OCc1ccccc1C	-21.9%

Continuation:
compound	HPGD block
COc1cc(NC(=O)COC(=O)/C=C/c2ccc(Cl)cc2Cl)cc(OC)c1	-12.9%
CNc1oc(-c2ccc(Cl)cc2)nc1C#N	?
Cc1ccccc1C(=O)NC(NC(=O)c1ccccc1C)c1cccc([N+](=O)[O-])c1	-5.9%
COc1ccc2nc3sc(C(=O)NCc4cccs4)c(N)c3cc2c1	?
Cc1ccc(C)c(-c2cc(C(=O)NCc3cccs3)c3ccccc3n2)c1	-23.2%
CC(C)CCC1CC(CSC(=N)N)OC1=O (stereo unspecified)	-13.0%
CCCNc1nc2c(c(=O)[nH]c(=O)n2C)n1CCCc1ccccc1	-12.5%
COCCCN1C(=O)C(=O)/C(=C(/O)c2ccc3c(c2)OCCO3)C1c1ccc(C(=O)OC)cc1 (stereo unspecified)	-5.9%
CC1CN(CCOc2ccc([N+](=O)[O-])cc2)CC(C)O1 (stereo unspecified)	-6.1%
COc1cc(CNC(C)(C)CO)cc(Br)c1OCc1ccc(Cl)cc1	-5.5%
CN1CC=C2C(C#N)=C(N)C(C#N)(C#N)C(c3cccc(Cl)c3Cl)C2C1 (stereo unspecified)	-27.5%
O=C(NC1CCCc2ccccc21)C1CCCO1 (stereo unspecified)	-12.3%
O=C(COC(=O)CCS(=O)(=O)c1ccc(Cl)cc1)NCCc1ccccc1	-1.7%
COc1ccc(C(=O)NC(C(=O)NCc2ccccn2)C(C)C)cc1 (stereo unspecified)	0.2%

Compound activity (PubChem)
